Assay outcomes as filed in PubChem.
Mtb betalactam – beta-lactam sensitization of Mtb H37Rv | M. tuberculosis H37Rv growth with meropenem, percent inhibition; hits of this screen are not shown here | inhibition, % at 25 µM | 0.27% of 330,000 active;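 active means about 74% or more and at least 40 points above the plate without the antibiotic, then above 30% in a dose series; inconclusive means first-round hits that could not be retested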;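 further: growth measured after seven days incubation then overnight dye step; 0% = bacteria only wells and 100% = bacteria with antibiotic; twin plates without the antibiotic show which effects depend on it; some results filed as inactive read as strong as hits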
YopH inh – blocks Yersinia enterocolitica YopH tyrosine phosphatase; fluorescence Ex485/Em525; inhibition, %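 (about 10 µM by stock and volumes)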; 0.16% of 140,000 active; AID 898;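 active means inhibition of 50% or more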;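 further: controls were vehicle for no effect and minimum signal wells for full effect; inactives centre near -20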
Mtb growth – M. tuberculosis H37Rv growth inhibitors, H37Rv strain (AID 1626). M. tuberculosis H37Rv growth inhibition; higher % means a stronger effect. inhibition, % at 10 µM, or IC50 in µM where a hit was titrated. 0.95% of 220,000 active;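 active means confirmed in a dose series; inconclusive means inhibition above 80% but not taken into the dose series; inactive means below 80% or under 30% at every dose of the series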;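 further: bacteria incubated seven days before Alamar blue readout; 0% = bacteria only wells and 100% = bacteria with antibiotic wells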
Arbovirus anti – blocks arbovirus infection | arbovirus infection cell-based antiviral screen | 0.37% of 200,000 active | inhibition, % at 10 µM | AID 1251;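 active means inhibition from about 30%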;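 further: bluetongue infection of BSR cells; cell survival read as ATP light after 72 h; 0% = infected wells without compound and 100% = uninfected wells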
RecA splice inh – blocks M. tuberculosis RecA intein splicing | cell-free RecA intein splicing, fluorescence | inhibition, %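 (about 9 µM by stock and volumes)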 | 0.75% of 290,000 active | AID 2221; in the data active means inhibition above about 30%; inconclusive means no clear call, values can overlap the other calls;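 further: 0% = vehicle wells and 100% = reference inhibitor control wells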
Target sequence (P9WHJ3 whole entry, looked up, canonical isoform): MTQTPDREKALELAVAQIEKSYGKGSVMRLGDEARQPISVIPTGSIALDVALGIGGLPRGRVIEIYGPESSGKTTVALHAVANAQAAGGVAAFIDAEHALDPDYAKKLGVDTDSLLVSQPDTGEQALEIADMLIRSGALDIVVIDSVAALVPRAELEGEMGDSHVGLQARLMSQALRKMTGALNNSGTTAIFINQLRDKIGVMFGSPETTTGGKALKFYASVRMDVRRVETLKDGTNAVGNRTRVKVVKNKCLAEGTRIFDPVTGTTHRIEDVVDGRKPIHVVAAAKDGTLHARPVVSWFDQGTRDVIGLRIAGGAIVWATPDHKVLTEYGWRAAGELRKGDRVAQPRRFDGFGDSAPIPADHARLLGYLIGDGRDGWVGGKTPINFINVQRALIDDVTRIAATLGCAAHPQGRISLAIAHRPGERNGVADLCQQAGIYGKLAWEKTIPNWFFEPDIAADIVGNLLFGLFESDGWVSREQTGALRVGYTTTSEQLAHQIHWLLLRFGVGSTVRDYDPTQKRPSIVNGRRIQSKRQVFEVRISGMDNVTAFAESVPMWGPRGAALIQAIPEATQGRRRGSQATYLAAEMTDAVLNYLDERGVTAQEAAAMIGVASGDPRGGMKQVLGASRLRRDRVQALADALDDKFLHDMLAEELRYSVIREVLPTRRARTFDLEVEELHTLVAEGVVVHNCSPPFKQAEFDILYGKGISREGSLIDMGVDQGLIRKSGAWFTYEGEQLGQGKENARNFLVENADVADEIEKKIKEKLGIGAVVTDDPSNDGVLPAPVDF
Arbovirus anti repeat – recorded beside Arbovirus anti, whose call it bears; inhibition, %; measured here: 10K subset replicate screen; many hits read low in the repeat;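 first of two repeat runs on a subset; 0% = infected and 100% = uninfected wells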
Starred values were filed as active, the others as inactive; ? = inconclusive; . = not tested or not shown. Some of the compounds tested; the hit share may differ from the screen's.

SMILES	Mtb betalactam	YopH inh	Mtb growth	Arbovirus anti	RecA splice inh	others
O=C1Cc2cc(NS(=O)(=O)c3ccc([N+](=O)[O-])cc3)cc3c2N1CCC3	-18	.	.	.	23
CCC(=O)N/N=c1/sc2ccccc2n1C	-3	.	1%	0	0.2
O=C(NCc1ccccc1)C1CC(=O)N(c2ccc(OCC(=O)N3CCOCC3)cc2)C1 (stereo not given)	-6	.	.	.	-1.9
Nc1c(C(=O)c2ccccc2)oc2ccc(Br)cc12	-20	-65	0%	1	-15
CC(C)(C)c1sc(N)nc1-c1ccccc1	1	-20	1%	.	7.8
O=c1[nH]c2ccc(S(=O)(=O)N3CCN(c4ccc(F)cc4)CC3)cc2o1	0	.	-23%	.	-2.2
CNc1ccc([N+](=O)[O-])cc1C(=O)O	-4	.	-9%	.	3.8
Cc1ccc(C(c2sc3nc(C)nn3c2O)N2CCN(c3ccc(F)cc3)CC2)cc1 (stereo not given)	-4	13	6%	14	5.3
COCCNC(=O)C1CCC(CNS(=O)(=O)c2ccc(F)cc2)CC1 (stereo not given)	7	.	.	.	-0.6
O=C(CN1CCN(S(=O)(=O)c2ccccc2[N+](=O)[O-])CC1)Nc1ccc(N2CCOCC2)cc1	-3	.	3%	.	-1.7
O=C(O)C1Cc2ccccc2CN1C(=O)c1ccccc1 (stereo not given)	6	-22	-3%	6	4.9
CCCC(C)NC(=O)c1nc(-c2ccccc2)n(-c2ccccc2)n1 (stereo not given)	-3	8	-3%	-19	2.3
CCOC(=O)c1ccc(NC(=O)CCc2nc(-c3ccccc3)no2)cc1	99	-40	2.3µM*	9	5.0
Cn1ncc(Br)c1C(=O)Nc1ccc(F)cc1F	3	12	3%	0	-0.6
Cn1nnnc1SCC(=O)Nc1cccc([N+](=O)[O-])c1	6	.	0%	-1	0.2
O=C(c1cc(COc2ccc(-n3cncn3)cc2)on1)N1CCCC1	-4	.	.	.	-1.1
NC(=O)Cn1cc(/C=N\NS(=O)(=O)c2cccc([N+](=O)[O-])c2)c2ccccc21	-3	.	.	.	-2.9
CC(C)CCOP(=O)(c1ccc(N(C)C)cc1)C(O)c1ccc(C(C)C)cc1 (stereo not given)	-2	.	.	.	1.9
CCCCN(C)CCCNC(=O)c1ccc(N2CCCC2=O)cc1	-6	-13	-1%	-11	2.5
Cc1cc(NS(=O)(=O)c2ccc(NC(=O)c3cc4cc(Br)ccc4oc3=O)cc2)no1	3	.	7%	-1	-5.3

Arranged by length of the SMILES (rising): part of the list above
SMILES	Mtb betalactam	YopH inh	Mtb growth	Arbovirus anti	RecA splice inh	others
CCCC(C)NC(=O)c1nc(-c2ccccc2)n(-c2ccccc2)n1 (stereo not given)	-3	8	-3%	-19	2.3
CCOC(=O)c1ccc(NC(=O)CCc2nc(-c3ccccc3)no2)cc1	99	-40	2.3µM*	9	5.0
CC(C)CCOP(=O)(c1ccc(N(C)C)cc1)C(O)c1ccc(C(C)C)cc1 (stereo not given)	-2	.	.	.	1.9

The main list resumes, starting 7 compounds before the break.
SMILES	Mtb betalactam	YopH inh	Mtb growth	Arbovirus anti	RecA splice inh	others
Cn1ncc(Br)c1C(=O)Nc1ccc(F)cc1F	3	12	3%	0	-0.6
Cn1nnnc1SCC(=O)Nc1cccc([N+](=O)[O-])c1	6	.	0%	-1	0.2
O=C(c1cc(COc2ccc(-n3cncn3)cc2)on1)N1CCCC1	-4	.	.	.	-1.1
NC(=O)Cn1cc(/C=N\NS(=O)(=O)c2cccc([N+](=O)[O-])c2)c2ccccc21	-3	.	.	.	-2.9
CC(C)CCOP(=O)(c1ccc(N(C)C)cc1)C(O)c1ccc(C(C)C)cc1 (stereo not given)	-2	.	.	.	1.9
CCCCN(C)CCCNC(=O)c1ccc(N2CCCC2=O)cc1	-6	-13	-1%	-11	2.5
Cc1cc(NS(=O)(=O)c2ccc(NC(=O)c3cc4cc(Br)ccc4oc3=O)cc2)no1	3	.	7%	-1	-5.3
COC(=O)c1cc(OC)c(OC)cc1NC(=O)c1cccc(C)c1	74	.	5%	-2	1.7
CCOc1cc2c(cc1OCC)-n1cccc1C(c1cc(C)c(OC)cc1C)NC2 (stereo not given)	19	.	.	.	5.2
COc1ccccc1NC(=O)CSc1nc2nc(C)cc(C)c2c(=O)[nH]1	-8	-43	-4%	-1	0.2
COc1cc(C2C=C(Nc3ccccc3)C(=O)N2c2ccccc2)ccc1O (stereo not given)	-2	-18	2%	23	-0.1
CC(C)(C)N(Cc1ccccc1)C(=O)COC(=O)c1cccc([N+](=O)[O-])c1	-6	.	-4%	3	5.1
O=C(/C=C/c1ccccc1)NC(NC(=S)Nc1cc(Cl)ccc1Cl)C(Cl)(Cl)Cl (stereo not given)	20	-50	14%	-6	-1.0
COc1cccc(CNC(=O)CCC2CCCN(C(=O)c3ccoc3C)C2)c1 (stereo not given)	3	.	1%	5	0.4
CC(C)CCn1c(O)c(N=NC(=O)c2ccco2)c2ccccc21	5	-30	5%	-4	2.2
COc1cc(OC)cc(C(=O)N[C@H](C(=O)OCc2cc(=O)oc3cc(C)ccc23)C(C)C)c1	0	4	10%	3	-1.1
Cn1c(=O)c2c(ncn2Cc2nnc(N)s2)n(C)c1=O	-9	.	-9%	-3	-1.9
CC(=O)NC(=S)Nc1ccc(NC(=O)c2cccnc2Cl)cc1	89	.	-8%	.	-1.0
CCN(Cc1cc(OC)c(OC)c(OC)c1)C(=S)Nc1cccc(SC)c1	-5	.	-6%	.	4.8
CCC(=O)c1ccccc1OCCN1CCN(CC)CC1	-2	.	-1%	10	-2.8
Cc1cc(OCC(O)CN2CCN(CCO)CC2)ccc1C(C)C (stereo not given)	0	-26	-2%	-12	2.1
CC1CCCC(C)N1C(=O)Cc1ccccc1 (stereo not given)	-6	-16	-1%	4	-0.4
CCCc1[nH]n(-c2ccc([N+](=O)[O-])cc2)c(=O)c1C=NCCc1c[nH]c2ccccc12	1	-30	-2%	-13	-0.6
CCC(O)C1CCN(Cc2cn(Cc3ccccc3)nc2-c2cc3ccccc3o2)CC1 (stereo not given)	13	.	3%	-27	1.4
COc1ccccc1C(=O)Nc1cc(Cl)ccc1O	12	-13	-8%	7	2.6
COc1ccc(CNC(=O)CCS(=O)(=O)c2ccc3c(c2)NC(=O)C(C)S3)cc1 (stereo not given)	-1	.	.	.	1.6
O=[N+]([O-])c1ccccc1N(CC1CO1)S(=O)(=O)c1ccccc1 (stereo not given)	-3	.	-2%	14	-1.6
CC1(C)CC(C)(O)N(Cc2ccccc2)C(=S)N1 (stereo not given)	5	-21	-1%	-15	2.4
CC(CNC(=O)CCc1nnc2ccc(N3CCC4(CC3)OCCO4)nn12)c1ccccc1 (stereo not given)	-1	.	.	.	-0.4
CC1(C)CC(=O)C2=C(C1)Nc1ccccc1NC2c1ccc([N+](=O)[O-])cc1 (stereo not given)	22	.	.	.	0.7
COc1ccccc1N1CCN(C(=O)CNC(=O)c2cn(-c3ccccc3OC)c(=O)c3ccccc23)CC1	11	.	-2%	3	-0.3
Cc1nc(N2CCN(C)CC2)c2c3c(sc2n1)CCCC3	-18	.	.	.	2.2
CC1=C(C(=O)Nc2ccc(C(=O)NCCC(C)C)cc2)SCCO1	7	.	.	.	0.1
CCN1C(=O)C(CC(=O)Nc2ccc(OC)cc2)N(CCCN2CCN(c3ccc(F)cc3)CC2)C1=S (stereo not given)	4	.	10%	4	-1.3
COC(=O)CN1C(=S)N(c2ccc(F)cc2)C(=O)C1CC(=O)Nc1ccc(OC)cc1 (stereo not given)	2	.	4%	.	3.7
CCN(CC)C(=O)Cn1cc(C(=O)C(=O)NCCc2c[nH]c3ccccc23)c2ccccc21	3	.	.	.	-2.1
CCOC(=O)c1c(CN2CCOCC2)n(-c2ccccc2)c2cc(Br)c(O)cc12	25	18	-2%	-35	14

A stretch from further up:
SMILES	Mtb betalactam	YopH inh	Mtb growth	Arbovirus anti	RecA splice inh	others
CC1(C)CC(C)(O)N(Cc2ccccc2)C(=S)N1 (stereo not given)	5	-21	-1%	-15	2.4
CC(CNC(=O)CCc1nnc2ccc(N3CCC4(CC3)OCCO4)nn12)c1ccccc1 (stereo not given)	-1	.	.	.	-0.4
CC1(C)CC(=O)C2=C(C1)Nc1ccccc1NC2c1ccc([N+](=O)[O-])cc1 (stereo not given)	22	.	.	.	0.7
COc1ccccc1N1CCN(C(=O)CNC(=O)c2cn(-c3ccccc3OC)c(=O)c3ccccc23)CC1	11	.	-2%	3	-0.3
Cc1nc(N2CCN(C)CC2)c2c3c(sc2n1)CCCC3	-18	.	.	.	2.2

Continuation:
SMILES	Mtb betalactam	YopH inh	Mtb growth	Arbovirus anti	RecA splice inh	others
O=C(COc1ccccc1[N+](=O)[O-])Nc1ccc2oc(=O)ccc2c1	-2	.	.	.	-1.0
COc1ccc(CCn2c(C)cc(C(=O)CSc3nnnn3-c3ccccc3)c2C)cc1OC	5	6	2%	7	1.2
COC(=O)CSc1nnc([C@H](CC(C)C)NC(=O)OC(C)(C)C)o1	99	-38	-5%	3	-2.0
Cc1ccccc1-c1nc(S(=O)(=O)c2ccc(Br)cc2)c(NCc2cccnc2)o1	94	4	16%	-35	.
N/C(=N\OC(=O)c1ccc(Br)cc1)c1cccc([N+](=O)[O-])c1	86	.	.	.	0.7
COc1ccc(N/C(C)=C2/C(=O)C(=O)N(CCO)C2c2ccc(Br)cc2)cc1 (stereo not given)	90	-28	0%	15	6.1
O=C(/C=C/Nc1ccccc1C(=O)O)c1cccs1	-3	-20	.	1	2.6
Cc1cc(C)cc(CSc2nnc(C)c(=O)[nH]2)c1	-1	-11	-4%	8	2.5
COCCNC(=O)C1CC(=O)N(C2CCCC2)C1 (stereo not given)	7	-16	-9%	0	3.9
CCS(=O)(=O)N1CCN(S(=O)(=O)c2ccc(S(=O)(=O)NC3CC3)cc2)CC1	9	.	.	.	-2.2
COc1ccc(Cl)cc1NC(=O)CN(C)C(=O)Cc1ccc2c(c1)CCC2	?	.	.	.	5.1
Cc1noc(C)c1COC(=O)c1ccc(-c2nc3ccccc3s2)s1	4	-45	-11%	-12	-3.0
CC1Sc2ccc(S(=O)(=O)CCC(=O)N3CCN(c4cccc(Cl)c4)CC3)cc2NC1=O (stereo not given)	83	.	.	.	-0.6
CCCCNC(=O)Nc1cc(C)on1	-8	-20	-9%	7	1.3
COc1ccc(C(C#N)c2ccc(Cl)nn2)cc1 (stereo not given)	-4	.	6%	7	-1.2
Cc1c(Br)c([N+](=O)[O-])nn1CC(=O)Nc1ccc(C(C)C)cc1	-11	.	.	1	-0.3
C/C(=N\NC(=O)c1cccc([N+](=O)[O-])c1)c1cccs1	81	.	?	.	-1.2
CCOC(=O)c1c(-c2ccccc2)csc1NC(=S)NC(=O)c1ccccc1	98	-58	12%	8	0.7
COc1cccc(C(=O)NCCNC(=O)c2ccccn2)c1	1	.	.	.	-2.0
COc1ccc(-c2nnc(SCCOc3cccc(C)c3)n2N)cc1	-8	-50	-5%	9	-1.6
CN(Cc1ccccc1)C(=O)Cn1cccc1C(=O)c1ccccc1	?	16	-2%	-5	1.0
COc1ccccc1C(=O)NC(=O)CSc1nnc(C)s1	-6	.	.	.	-1.4
Cc1ccc(-n2c(=S)[nH]c3c(oc4ccccc43)c2=O)cc1C	-1	-21	6%	6	0.7
Cc1cccnc1NC1(C(F)(F)F)N=C2SCCN2C1=O (stereo not given)	-3	.	3%	1	-1.5
Cc1nnc(Nc2ccc3c(c2)OCO3)c2ccccc12	0	-44	7%	-1	-2.0	Arbovirus anti repeat=-8
CCOC(=O)c1nn(-c2ccc(F)cc2)cc1O	8	.	-2%	23	-4.3
